Screening data (PubChem BioAssay)
D2 agonist: activates the human D2 dopamine receptor. hit rate 0.084% among 360,000. DiscoveRx PathHunter D2 beta-arrestin, luminescence, 90 min; 100% = 57 uM dopamine signal. P14416. activation, % (concentration not given with the values); in the data active = activation above about 40%; inconclusive = about 15% to 40%; inactive = below about 15%; further: compound concentration not given in the record; the text of the record calls up to 30% inactive
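DiscoveRx PathHunter D2 beta-arrestin cells (2,100/well) attached overnight, then compound-stimulated 90 min at 37 C in HBSS/10 mM HEPES/0.1% Tween-20 buffer; beta-galactosidase complementation read by luminescence after 1 h at ambient temperature. Dopamine 57 uM final (EC100) as control.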
TRPML1 agonist: activates the human TRPML1 channel | TRPML1-expressing cells, Ca2+ dye fluorescence, FDSS; host cell line not named in the record; reference of the full effect not given here | AID 624414 | Q9GZU1 | hit rate 0.12% among 410,000 | activation, % (concentration not given with the values); in the data active = activation above about 50%; inconclusive = about 30% to 50%; inactive = below about 30%; further: 0% is about no effect; the text of the record puts the active cut at 80%
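Agonist activity was taken from a 110 s kinetic Ca2+ dye read on the FDSS after pinning compounds onto TRPML1-DL cells. The cells were seeded at 1,500/well with Tet inducer, incubated about 16 h, then dye-loaded at room temperature.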
PINK1 modulator: modulators of PINK1 expression; PINK1 immunofluorescence, high-content cytometry, 24 h; Potency, µM (highest dose often 76.6 µM), inactives show top-dose activation (PINK1 increase), actives largely listed as activators; hit rate 0.2% among 410,000; AID 624263; active = well fitted activation curve with a large enough effect; inconclusive = small, poorly fitted or top-dose-only effect; inactive = flat fitted curve, though single readings scatter; cell line not stated here;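 further: potency means the concentration at half of the fitted maximal effect; % of control where 0% means no effect; nearly all actives have a fitted effect of over 65% in size; a mitochondrial uncoupler was the plate control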
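Readout is PINK1 immunofluorescence, quantified alongside mitochondrial, cell and nuclear markers by laser-scanning microplate cytometry. Cells from a stable line were exposed to compound titrations (5 concentrations) for 24 hours, with CCCP controls.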
D2 potentiator: human D2 receptor positive allosteric modulation; P14416; DiscoveRx D2 beta-arrestin cells, luminescence, 90 min; 100% = 57 uM dopamine signal; potentiation, % (test concentration not listed); hit rate 0.23% among 360,000; AID 624464; active = potentiation of 50% or more; inconclusive = 30% to 50%; inactive = 30% or less;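 further: compound concentration not given in the record; tested on top of an EC20 dose of dopamine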
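PathHunter D2 cells, attached overnight at 37 deg C, received compound in DMSO plus dopamine at EC20 (50 nM final) for 90 min at 37 deg C. Beta-arrestin recruitment was read as luminescence after 1 h with detection reagent at ambient temperature.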
Six1-Eya2 blk: blocks human Six1 binding to Eya2; Q15475+O00167; AlphaScreen GST-Six1/His-Eya2 binding, biochemical; stronger effect = lower value; control for the full effect not named in the record; activity change, % (test concentration not listed); hit rate 0.56% among 360,000; AID 651725; in the data active = activity change below about -65%; inconclusive = about -30% to -65%; inactive = above about -30%; further: on the % scale 0 is the no-effect control and ±100 the full control effect; compound concentration not given in the record
Target sequence (O00167 whole entry, looked up): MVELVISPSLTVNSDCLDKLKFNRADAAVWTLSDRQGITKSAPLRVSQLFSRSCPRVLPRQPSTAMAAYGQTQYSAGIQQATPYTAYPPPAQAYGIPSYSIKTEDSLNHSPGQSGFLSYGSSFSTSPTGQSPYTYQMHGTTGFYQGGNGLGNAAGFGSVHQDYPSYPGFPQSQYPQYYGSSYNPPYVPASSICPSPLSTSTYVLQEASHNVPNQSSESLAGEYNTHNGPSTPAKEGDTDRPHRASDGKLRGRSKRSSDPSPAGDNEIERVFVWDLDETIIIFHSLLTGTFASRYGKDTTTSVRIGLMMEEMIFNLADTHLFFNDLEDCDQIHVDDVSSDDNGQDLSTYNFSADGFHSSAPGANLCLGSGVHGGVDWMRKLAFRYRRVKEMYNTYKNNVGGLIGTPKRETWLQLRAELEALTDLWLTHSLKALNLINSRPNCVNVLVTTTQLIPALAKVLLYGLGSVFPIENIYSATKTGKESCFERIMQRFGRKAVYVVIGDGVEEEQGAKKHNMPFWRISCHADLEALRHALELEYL
Target sequence (Q15475 whole entry, looked up): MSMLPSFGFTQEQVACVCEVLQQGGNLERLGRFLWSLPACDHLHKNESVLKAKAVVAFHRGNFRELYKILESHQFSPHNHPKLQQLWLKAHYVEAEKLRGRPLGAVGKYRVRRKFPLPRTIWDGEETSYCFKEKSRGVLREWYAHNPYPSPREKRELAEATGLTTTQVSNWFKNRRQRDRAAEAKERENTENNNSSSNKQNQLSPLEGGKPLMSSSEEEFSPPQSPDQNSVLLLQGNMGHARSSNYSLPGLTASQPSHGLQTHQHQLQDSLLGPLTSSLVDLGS
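Compounds are tested against tagged Six1 and Eya2 proteins bridged by glutathione donor and nickel acceptor beads; after a one-hour incubation at 37 °C without light, AlphaScreen emission is recorded.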
CtBP-E1A inh: CtBP/E1A binding inhibition | activity change, % (test concentration not listed) | AID 651724 | hit rate 0.49% among 340,000 | AlphaScreen GST-E1A/His-CtBP binding, 1536-well; stronger effect = lower value; control for the full effect not named in the record; in the data active means activity change below about -65%; inconclusive means about -30% to -65%; inactive means above about -30%; further: on the % scale 0 is the no-effect control and ±100 the full control effect; compound concentration not given in the record
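In 5 uL wells, 23 nL compound meets equimolar GST-E1A and His-CtBP (5X stock 125 nM each) for 2 h, 37 °C. Beads (5X, 50 ug/mL) then 1 h, 37 °C, dark.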
An asterisk follows results filed as active; ? = inconclusive; . = no result given; & = joins results of further samples; [ ] = dose if it differs, or a comment. The order is random. About 1.3% of those tested had a hit in this group.

Keys – A = D2 agonist; B = TRPML1 agonist; C = PINK1 modulator; D = D2 potentiator; E = Six1-Eya2 blk; F = CtBP-E1A inh
smiles: COc1ccc(NC(=O)C23CC4CC(C2)CC(c2ccc(C)cc2)(C4)C3)cc1
  A = 0.7; B = 1.1; C = 2.4%; D = 1; E = 35; F = 0

smiles: C=CCNC(=O)C1CCN(S(=O)(=O)c2cccs2)CC1
  A = -12; B = 0.5; C = 0.7%; D = -8; E = 20; F = 0

smiles: C[C@H](NC(=O)c1nc[nH]c1C(=O)N[C@@H](CCCCN)C(=O)OC(C)(C)C)C(=O)OCc1ccccc1
  A = -3.7; B = -0.5; C = -1.3%; D = -3; E = 0; F = -1

smiles: COc1ccc(N2C(=NC(=O)C3CCCCC3)SC3CS(=O)(=O)CC32)cc1 (configuration not stated)
  A = -6.4; B = 1.7; C = 4.7%; D = -4; E = 8; F = 7

smiles: CC(C)(C)c1ccc(-c2cc(N)n[nH]2)cc1
  A = -2.0; B = 0.1; C = 2.6%; D = -4; E = 3; F = -6

smiles: Cc1ccc(S(=O)(=O)Nc2cc(-c3ccccc3)nn2C)cc1
  A = -5.9; B = -0.8; C = 3.2%; D = 0; E = -11; F = -1

smiles: Cc1cc(S(=O)(=O)NCC(C)C)ccc1OCC(=O)N1CCOCC1
  A = -1.1; B = -0.5; C = 3.6%; D = 21; E = 0; F = -1

smiles: COc1ccccc1-n1c(-c2ccc(NS(C)(=O)=O)cc2)n[nH]c1=S
  A = 2.8; B = 0.6; C = 12%[38.3 µM]; D = 0; E = 3; F = 2

smiles: COc1ccc(OCCCC(=O)OC(C)C(=O)Nc2ccc(S(N)(=O)=O)cc2)cc1 (configuration not stated)
  A = -0.3; B = -0.1; C = -1.8%; D = -10; E = 3; F = 0

smiles: Cc1cc(C)c(C(=O)OCC(=O)Nc2cccc(S(=O)(=O)N3CCCCC3)c2)c(C)c1
  A = 5.9; B = 0.6; C = 6.8%; D = 19; E = -11; F = 1

smiles: O=C1NCCN(Cc2c(F)cccc2Cl)C1CC(=O)N1CCCO1 (configuration not stated)
  A = -2.5; B = 0.4; C = 0.3%; D = -5; E = 5; F = 5

smiles: C=CCCC(=O)N1C[C@H]2CON(C)[C@H]2C[C@H]1c1cccc(N2CCOCC2)c1
  A = -9.3; B = 0.0; C = 0.1%; D = 1; E = 4; F = 1

smiles: COc1ccc(OCC(=O)Nc2ccc3c(c2)n(C)c(=O)n3C)cc1
  A = 2.7; B = -1.1; C = 3.2%; D = -5; E = 6; F = .

smiles: Cc1cc(OCCOCCN(C)CCO)cc(C)c1Cl
  A = -0.9; B = 0.8; C = 2.2%; D = -30; E = 7; F = 3

smiles: Cc1[nH]c2ccccc2c1C(=O)/C=C/c1ccccc1
  A = -3.9; B = 0.8; C = -4.3%; D = -9; E = -17; F = ?

smiles: c1ccc(-c2cc3nccc(-c4ccccn4)n3n2)cc1
  A = -6.6; B = 1.9; C = 0.1%; D = -26; E = 37; F = 34

smiles: C[C@H](CO)N1C[C@H](C)[C@@H](CN(C)S(=O)(=O)c2ccc(F)cc2)Oc2ccc(NC(=O)C3CC3)cc2C1=O
  A = 7.6; B = -0.1; C = 1.8%; D = 16; E = 7; F = 5

smiles: CC1CCCC(C)N1C(=O)CSc1nccc(=O)[nH]1 (configuration not stated)
  A = -1.9; B = -0.2; C = -0.6%; D = -13; E = 0; F = -10

smiles: CCN(CC)C(=O)Cn1c(=O)n(C)c2ccccc21
  A = -0.8; B = 1.7; C = 3.4%; D = -9; E = 4; F = -2

smiles: CC(C)(C)C1CCc2c(sc3nc(SCC(N)=O)nc(N)c23)C1 (configuration not stated)
  A = 7.0; B = 1.5; C = -1.3%; D = 59*; E = -7; F = -13

smiles: COC(=O)c1cn(C)c2ccc(S(=O)(=O)N(C)C3CCCCC3)cc2c1=O
  A = 0.2; B = 3.5; C = 0.1%; D = -7; E = -24; F = -1

smiles: COc1ccc(-n2nc(C(=O)NCC(=O)N3CCN(Cc4ccccc4)CC3)c3ccccc3c2=O)cc1
  A = -1.4; B = 1.6; C = -0.1%; D = -8; E = -5; F = -5

smiles: O=c1[nH]c(CSc2ccccn2)nc2c1cnn2-c1ccccc1
  A = -2.9; B = 0.8; C = 0.7%; D = -9; E = -3; F = -5

smiles: CCCS(=O)(=O)NC(=O)C1(C)CCN(C(=O)Cc2cccc(OC)c2)C1 (configuration not stated)
  A = -2.6; B = -0.6; C = 0.8%; D = -6; E = 0; F = 6

smiles: COc1ccc(S(=O)(=O)N2CCOCC2)cc1NC(=O)CSc1nnc(N)s1
  A = -1.7; B = -0.8; C = -0.6%; D = -7; E = -3; F = 2

Next section, starting with the last 5 of the part before.
Keys – A = D2 agonist; B = TRPML1 agonist; C = PINK1 modulator; D = D2 potentiator; E = Six1-Eya2 blk; F = CtBP-E1A inh
smiles: COC(=O)c1cn(C)c2ccc(S(=O)(=O)N(C)C3CCCCC3)cc2c1=O
  A = 0.2; B = 3.5; C = 0.1%; D = -7; E = -24; F = -1

smiles: COc1ccc(-n2nc(C(=O)NCC(=O)N3CCN(Cc4ccccc4)CC3)c3ccccc3c2=O)cc1
  A = -1.4; B = 1.6; C = -0.1%; D = -8; E = -5; F = -5

smiles: O=c1[nH]c(CSc2ccccn2)nc2c1cnn2-c1ccccc1
  A = -2.9; B = 0.8; C = 0.7%; D = -9; E = -3; F = -5

smiles: CCCS(=O)(=O)NC(=O)C1(C)CCN(C(=O)Cc2cccc(OC)c2)C1 (configuration not stated)
  A = -2.6; B = -0.6; C = 0.8%; D = -6; E = 0; F = 6

smiles: COc1ccc(S(=O)(=O)N2CCOCC2)cc1NC(=O)CSc1nnc(N)s1
  A = -1.7; B = -0.8; C = -0.6%; D = -7; E = -3; F = 2

smiles: CCOc1ccc(-c2nc(=S)[nH][nH]2)cc1
  A = 2.5; B = -0.1; C = 0.6%; D = -1; E = 7; F = 5

smiles: Cc1cc(Nc2c(C)n(C)n(-c3ccccc3)c2=O)c2ccccc2n1
  A = -5.1; B = -0.5; C = 0.4%; D = -7; E = 8; F = -4

smiles: COc1ccccc1C(=O)NCc1ccncc1
  A = 3.2; B = -0.3; C = 3.6%[38.3 µM]; D = 1; E = 4; F = 4

smiles: CN1CCN(NC(=O)c2cccc3ccccc23)CC1
  A = 2.4; B = 0.4; C = -0.2%; D = -3; E = 4; F = 7

smiles: CCCc1nc2sc3c(=O)n(N)cnc3c2c2c1CCCC2
  A = -3.2; B = 0.3; C = 3.5%; D = -6; E = 15; F = .

smiles: COc1ccc(C2=NOC(Cn3nc(C(=O)NCc4ccccc4OC)cc3-c3ccccc3)C2)cc1 (configuration not stated)
  A = 8.3; B = 1.1; C = 0.7%; D = 20; E = -9; F = -5

smiles: N#Cc1ccccc1NC(=O)CC1CCCCC1
  A = -4.8; B = -0.2; C = 1.4%; D = 1; E = -6; F = ?

smiles: O=C(Cn1c2ccccc2c(=O)c2ccccc21)Nc1ccccc1F
  A = -0.3; B = 1.2; C = 0.2%; D = -14; E = 2; F = 10

smiles: COCc1nnc(N)s1
  A = -0.1; B = 0.1; C = -2.1%; D = -2; E = 6; F = 10

smiles: CCCCN(C=O)c1c(CC)nc2c(OCc3ccc(Cl)cc3)cccn12
  A = -2.5; B = 0.5; C = 3.9%; D = -9; E = -7; F = -3

smiles: CCOC(=O)c1nnn(-c2nc(N(C)C)nc(N(C)C)n2)c1C
  A = -2.7; B = -0.5; C = -0.6%; D = -5; E = -3; F = -1

smiles: COc1ccc(-c2nc(SC(C)C(=O)Nc3ccc(NC(C)=O)cc3)n[nH]2)cc1 (configuration not stated)
  A = 1.7; B = -0.6; C = 4.5%; D = 4; E = -12; F = -2

smiles: Cc1ccc(-n2c(=O)[nH]c3c(C(N)=O)nc(-c4ccc(C)o4)nc32)cc1
  A = -2.9; B = 1.1; C = 15%; D = -8; E = -15; F = -13

smiles: COc1ccccc1-c1cnc(C(O)c2ccc(F)c(C)c2)[nH]1 (configuration not stated)
  A = -2.9; B = -1.2; C = 6.7%; D = -14; E = -6; F = -1

smiles: O=S(=O)(c1ccc2ccccc2c1)N1CCN(C(=S)Nc2ccc(F)c(Cl)c2)CC1
  A = 7.8; B = 0.0; C = 3.1%; D = ?; E = -22; F = 2

smiles: O=c1cc(NS(=O)(=O)c2ccccc2)nc(SCc2c(Cl)cccc2Cl)[nH]1
  A = -3.4; B = 0.0; C = 6.3%; D = -5; E = 2; F = 9

smiles: CC(C)(C)OC(=O)C[C@H]1C/C=C\C[C@H](CC(=O)N(CCO)Cc2ccccc2)C(=O)N[C@@H](Cc2ccccc2)COC1=O
  A = -0.9; B = -0.7; C = 1.7%; D = -11; E = -29; F = 1

smiles: COc1ccccc1NC(=O)CC(=O)c1ccccc1
  A = -1.9; B = -0.1; C = -0.3%; D = -1; E = 4; F = 6

smiles: Cn1c(SCC#N)nc2ccccc2c1=O
  A = -2.5; B = -0.8&0.6; C = 1.1%&-0.2%; D = -14; E = -8; F = -10

smiles: COC(=O)c1c(NC(=O)CN2CCN(c3ccccc3)CC2)c2c(C)cccc2n1C
  A = 9.7; B = -0.1; C = 4.4%; D = 18; E = -8; F = -13

smiles: Cc1cc(C(=O)Nc2ccc(S(=O)(=O)Nc3onc(C)c3C)cc2)c(C)o1
  A = -0.4; B = -0.3; C = 0.2%[38.3 µM]; D = 2; E = 14; F = 41

smiles: O=c1[nH]c2ccccc2c(=O)c2ccccc12
  A = -6.1; B = -0.5; C = 0.5%; D = -8; E = -10; F = -9

smiles: c1ccc2oc(-c3nn4c(Cn5cnc6ccccc65)nnc4s3)cc2c1
  A = 7.6; B = 1.4; C = 6.8%; D = 0; E = 4; F = 3

smiles: COc1ccc(NC(=S)NC(=O)/C=C/c2cccs2)cc1
  A = -2.7; B = -0.1; C = 4.9%; D = -4; E = -27; F = -8

smiles: Cc1c(C#N)c2ccccc2n1CC(=O)NCC1CCCO1 (configuration not stated)
  A = -0.1; B = 0.1; C = 4.9%[38.3 µM]; D = -6; E = 6; F = 3

smiles: CCCNC(=O)CSc1nnc(NC(=O)C2CC(=O)N(c3ccccc3OC)C2)s1 (configuration not stated)
  A = -1.9; B = -0.4; C = -1.1%; D = -11; E = -3; F = 2

smiles: Cc1c(N/C=C(\Cl)C(=O)C(F)(F)F)c(=O)n(-c2ccccc2)n1C
  A = -3.3; B = 0.0; C = -0.2%; D = 7; E = 20; F = 0

smiles: CC(=O)c1c(C)nn(C(=O)c2cccs2)c1C
  A = 2.8; B = -0.1; C = 1.3%; D = -3; E = 0; F = 1

smiles: COc1cc(OC)nc(Oc2cccc(Cl)c2C)n1
  A = -8.6; B = 1.7; C = 5.3%; D = 0; E = 18; F = 9

smiles: O=C(Nc1cccc(S(=O)(=O)N2CCCCC2)c1)c1c2c(nc3ccccc13)CCN(Cc1ccccc1)C2
  A = -1.3; B = 1.4; C = 0.0%; D = -15; E = -9; F = -8

smiles: Cc1cc(C)nc(SCCC(=O)N2CCOCC2)n1
  A = -5.1; B = -0.2; C = -3.1%; D = -7; E = 0; F = 5

smiles: CNc1cncc(-c2cccc(C(=O)NCCN(C)C)c2)n1
  A = 2.1; B = -0.5; C = 1.1%; D = -9; E = -9; F = -7

smiles: Nn1cnnc1N/N=C/c1cc(Br)cc(Br)c1O
  A = -6.8; B = -0.7; C = 1.1%; D = -30; E = -92*; F = -91*
